Mtb H37Rv = M. tuberculosis H37Rv growth inhibitors, H37Rv strain (AID 1626); actives 0.95% (n = 220,000); M. tuberculosis H37Rv growth inhibition; higher % means a stronger effect; inhibition, % at 10 µM, or IC50 in µM where a hit was titrated;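 active means confirmed in a dose series; inconclusive means inhibition above 80% but not taken into the dose series; inactive means below 80% or under 30% at every dose of the series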;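 further: bacteria incubated seven days before Alamar blue readout; 0% = bacteria only wells and 100% = bacteria with antibiotic wells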
Arbovirus inh = blocks arbovirus infection; arbovirus infection cell-based antiviral screen; inhibition, % at 10 µM; actives 0.37% (n = 200,000);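 active means inhibition from about 30%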;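 further: bluetongue infection of BSR cells; cell survival read as ATP light after 72 h; 0% = infected wells without compound and 100% = uninfected wells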
YopH inh = YopH (Yersinia) phosphatase inhibition | fluorescence Ex485/Em525 | inhibition, %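 (about 10 µM by stock and volumes)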 | actives 0.16% (n = 140,000);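 active means inhibition of 50% or more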;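 further: controls were vehicle for no effect and minimum signal wells for full effect; inactives centre near -20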
RecA intein inh = blocks M. tuberculosis RecA intein splicing | P9WHJ3 | cell-free RecA intein splicing, fluorescence | inhibition, %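 (about 9 µM by stock and volumes)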 | actives 0.75% (n = 290,000) | AID 2221; in the data active means inhibition above about 30%; inconclusive means no clear call, values can overlap the other calls;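 further: 0% = vehicle wells and 100% = reference inhibitor control wells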
Target sequence (P9WHJ3 whole entry, looked up): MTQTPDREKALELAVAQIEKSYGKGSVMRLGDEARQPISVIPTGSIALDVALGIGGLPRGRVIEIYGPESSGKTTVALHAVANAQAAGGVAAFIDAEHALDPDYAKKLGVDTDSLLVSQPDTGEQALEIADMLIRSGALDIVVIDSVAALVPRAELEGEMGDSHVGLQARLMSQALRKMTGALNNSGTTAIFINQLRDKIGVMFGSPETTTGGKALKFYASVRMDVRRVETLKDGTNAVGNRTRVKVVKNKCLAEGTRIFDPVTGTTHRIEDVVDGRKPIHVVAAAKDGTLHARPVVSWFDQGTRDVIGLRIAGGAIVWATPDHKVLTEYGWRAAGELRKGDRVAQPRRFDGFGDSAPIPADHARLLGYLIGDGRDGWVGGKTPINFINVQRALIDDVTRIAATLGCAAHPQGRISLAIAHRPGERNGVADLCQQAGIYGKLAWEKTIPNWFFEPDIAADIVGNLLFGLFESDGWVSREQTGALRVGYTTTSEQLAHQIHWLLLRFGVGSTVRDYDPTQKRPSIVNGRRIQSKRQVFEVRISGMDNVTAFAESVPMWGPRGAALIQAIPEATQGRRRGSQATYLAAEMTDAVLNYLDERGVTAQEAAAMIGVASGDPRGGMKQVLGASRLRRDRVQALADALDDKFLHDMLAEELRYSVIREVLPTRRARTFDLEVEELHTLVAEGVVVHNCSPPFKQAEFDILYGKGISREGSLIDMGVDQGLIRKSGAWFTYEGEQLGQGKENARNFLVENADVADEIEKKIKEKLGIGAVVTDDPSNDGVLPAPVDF
Mtb bLac sens = beta-lactam sensitization of Mtb H37Rv | M. tuberculosis H37Rv growth with meropenem, percent inhibition; hits of this screen are not shown here | actives 0.27% (n = 330,000) | inhibition, % at 25 µM | AID 434955;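 active means about 74% or more and at least 40 points above the plate without the antibiotic, then above 30% in a dose series; inconclusive means first-round hits that could not be retested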;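 further: growth measured after seven days incubation then overnight dye step; 0% = bacteria only wells and 100% = bacteria with antibiotic; twin plates without the antibiotic show which effects depend on it; some results filed as inactive read as strong as hits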
Arbovirus inh repeat = second read-out of Arbovirus inh, no call of its own (marks repeat the call); inhibition, %; measured here: 10K subset replicate screen; many hits read low in the repeat;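 first of two repeat runs on a subset; 0% = infected and 100% = uninfected wells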
* marks the source's active call; other numbers are inactive results; ? = inconclusive; · = no result given. Some of the compounds tested (hit frequency here may not be typical).

SMILES | Mtb H37Rv | Arbovirus inh | YopH inh | RecA intein inh | Mtb bLac sens | others
CCN(CC)c1ccc(NS(=O)(=O)c2ccc3c(c2)oc(=O)n3C)c(C)c1 | 1.8% | 2.7 | -7.2 | -23.0 | -10.0 | Arbovirus inh repeat=11.2
Cc1c(Cl)cccc1NC(=O)CCCCCN1C(=O)CCC1=O | 1.8% | 12.4 | 6.9 | 0.8 | -11.1
Cc1ccc(CCN2C(=O)CCC2(C)C(=O)NC2CCCC2)cc1 (centres undefined) | · | 1.2 | -34.3 | · | -1.6 | Arbovirus inh repeat=2.3
COc1cc(OC)cc(C(=O)NNC(=O)Cc2ccc(OC)c(S(=O)(=O)N3CCOCC3)c2)c1 | -3.1% | -8.4 | -18.0 | 0.1 | -2.6
Cc1cc(NC(=O)CSc2ncnc3sccc23)no1 | -0.4% | 1.0 | · | 4.1 | -6.6
Oc1ccc(Br)cc1/C=N/Nc1ccccn1 | · | · | · | 0.2 | 45.7
CCOc1cccc2sc(NC(=O)CCS(=O)(=O)c3ccccc3)nc12 | · | · | · | 3.5 | ?
CC(C)(C)c1cc(/C=C2\NC(=O)NC2=O)cc(C(C)(C)C)c1O | · | · | · | -2.3 | 23.5
CCS(=O)(=O)N1Cc2ccccc2CC1C(=O)Nc1nc2ccccc2s1 (centres undefined) | 40.7% | 6.1 | -5.5 | 1.3 | 93.3
Cc1ccc(NC(=S)NCc2cccn2C)cc1 | -6.5% | 2.8 | -3.6 | 1.7 | -23.2
CNC(=O)CSc1nnc(-c2ccccc2)n1C | 0.9% | 5.3 | · | 8.8 | -2.9
CCOC(=O)C1(C)Oc2ccc(S(=O)(=O)CC)cc2NC1=O (centres undefined) | -1.7% | 2.1 | · | -3.1 | -3.0
COc1cc(Cl)ccc1OCc1cc(C(=O)N(C)CCc2c(C)n[nH]c2C)no1 | · | · | · | 2.9 | -4.3
COc1cc(-n2nnnc2SCC(=O)N2CCN(c3ccc(F)cc3)CC2)c(OC)cc1Cl | -3.9% | 6.1 | -24.1 | 0.7 | ·
COc1ccc(N(CC(=O)NC2CC3CCC2C3)S(=O)(=O)c2ccccc2)cc1OC (centres undefined) | · | · | · | 0.8 | -5.2
CCC(C)(C(=O)NC1CCCC1)N(C)C(=O)c1ccccn1 (centres undefined) | -3.5% | 4.4 | · | 0.8 | -12.1
COc1ccc(S(=O)(=O)CCC(=O)NCCc2cccc(C)c2)cc1 | -4.2% | -5.4 | -12.8 | 0.3 | -13.1
O=C(N/C(=C\c1cccnc1)c1nc2ccccc2[nH]1)c1cccc(Br)c1 | 8.9% | 8.2 | -10.2 | 1.3 | 5.5
COc1cc(CC(=O)NCC2CCCCC2)cc(OC)c1OC | · | · | · | -0.5 | -6.5
CCn1c(CCNC(=O)c2ccc(OC)cc2)nnc1SCC(=O)Nc1ccccc1F | 0.1% | -0.3 | · | 5.9 | -3.7
COc1ccc(S(=O)(=O)Nc2nc3ccccc3nc2Nc2cccc(C(=O)O)c2)cc1 | · | · | · | -5.6 | 0.3
CNC(=S)N/N=C/c1c(C)cccc1Cl | -12.7% | · | · | 1.2 | 2.0
Cc1cccc(C(=O)Oc2ccccc2-c2nnco2)c1 | 7.4% | -0.1 | -23.1 | 6.3 | 99.9
Cc1sc2ncnc(N3CCC(C(=O)NNC(=O)COc4cccc(C(F)(F)F)c4)CC3)c2c1C | · | · | · | -0.2 | 68.9
CCOC(=O)c1c(NC(=O)CN2C(=O)NC(C)(c3ccc(Cl)cc3)C2=O)sc(C(=O)NC)c1C (centres undefined) | 15.4% | -15.5 | -22.8 | -0.4 | 76.4
Cc1ccc(C(C2=C(O)CC(C)(C)CC2=O)C2C(=O)CC(C)(C)CC2=O)s1 (centres undefined) | -7.2% | -0.7 | -28.3 | 0.1 | -1.5
COc1cccc2c(SCC(=O)N/N=C/c3ccc(O)cc3O)cc(C)nc12 | -4.3% | -32.8 | · | -9.8 | ·
O=C(CSCC(=O)OCn1nnc2ccccc2c1=O)Nc1ccc(Cl)cc1 | · | 1.4 | -15.9 | 1.6 | -6.0
Cc1c(NC(=O)/C(=C\c2ccccc2)NC(=O)c2ccccc2)c(=O)n(-c2ccccc2)n1C | -13.7% | 9.5 | -16.6 | -2.7 | -5.3
COCCN1CCc2[nH]c(=S)[nH]c(=O)c2C1 | -6.0% | 0.8 | 1.1 | -6.3 | 5.6
CC1(C)CC(=O)c2sc(NC(=O)C(C)(C)C)nc2C1 | 3.6% | 1.2 | · | 0.1 | 6.2
Cc1nnc(NC(=O)CN2CCN(Cc3ccccc3)CC2)s1 | · | · | · | 0.0 | -5.9
Oc1ccc(C[C@H]2CNCCN2CC2CCCCC2)cc1 | · | · | · | -0.7 | -5.5
Cc1ccc(S(=O)(=O)N2CCCC2CNC(=O)C(=O)Nc2ccc(F)cc2F)cc1 (centres undefined) | · | · | · | -0.2 | -3.2
CC(C)(C)c1cc[n+](CC(=O)Nc2cc(C(F)(F)F)ccc2N2CCOCC2)cc1 | -3.5% | -0.1 | · | · | -6.6
COC(=O)c1ccc(C2NC(=O)NC(C)=C2C(=O)N(C)C)cc1 (centres undefined) | -6.2% | 4.9 | -33.6 | 0.0 | -0.5
S=c1nc(-c2ccccc2)n(-c2ccccc2)[nH]1 | · | · | · | -1.8 | -0.6
CC(C)(C)C1CCC(=NNC(=O)c2ccco2)CC1 (centres undefined) | · | · | · | 0.0 | 7.9
O=C1CN(C(=O)c2ccccc2F)C(c2ccc(F)cc2)c2cc(F)ccc2N1 (centres undefined) | · | · | · | -5.3 | 5.2
Cc1cccc(CN2CCN(CC(=O)NCCCN3CCN(c4ccc(F)cc4)CC3)C2=O)c1 | -3.0% | 1.7 | 1.5 | 1.7 | ·
COc1ccccc1N1CCN(C(=O)c2ccc(Br)s2)CC1 | 5.9% | -4.3 | -44.6 | -1.5 | 14.8 | Arbovirus inh repeat=0.6
O=C(/C=C/c1cccs1)Nc1ccc(N2CCOCC2)c(S(=O)(=O)Nc2cc(Cl)ccc2Cl)c1 | -2.7% | 5.3 | -28.9 | 1.1 | ?
COC(=O)C1=C(C)N(C)C(C)=C(C(=O)OC)C1c1ccc(Cl)cc1 | 1.4% | 1.0 | -10.9 | 2.1 | -7.7
COc1ccc(C(=O)N/N=C/c2sc(N3CCOCC3)nc2-c2ccccc2)cc1OC | -3.2% | 6.8 | · | -28.9 | -8.2
O=C(c1ccc(N2CCCCC2)c([N+](=O)[O-])c1)N1CCC2(CC1)OCCO2 | -2.7% | -10.3 | · | 0.9 | 1.3
O=C(N/N=C/c1ccc(Cl)cc1)Nc1ccccc1 | -0.2% | 2.1 | -26.9 | -5.5 | 5.0
Cc1ccnc(NC(=O)c2ccc(Cl)s2)c1 | · | · | · | 1.0 | ?
COc1cc(/C=C2\SC(=Nc3c(C)n(C)n(-c4ccccc4)c3=O)NC2=O)ccc1O | 6.6% | -1.2 | -32.5 | · | ·
O=C(NNc1ccccc1F)c1ccccc1 | 52.7% | · | · | -0.3 | 91.3
Cc1cc(C)n2nc(C(=O)NNC(=O)c3ccc(Cl)cc3)nc2n1 | 3.4% | · | · | 0.0 | -4.5
CC(C)CC(=O)Nc1ccc(Oc2ccc(NC(=O)CC(C)C)cc2)cc1 | -10.6% | -1.3 | -15.9 | 0.7 | -0.8
Nc1nc(CN2CCN(c3ccc(F)cc3)CC2)nc(N2CCCc3ccccc32)n1 | -1.3% | -2.0 | -18.6 | -1.2 | 90.2
Cc1[nH][nH]c(=O)c1C(c1ccc(-c2ccc(C(=O)O)cc2)o1)c1c(C)[nH][nH]c1=O | -9.8% | -10.4 | · | · | ·
COc1ccc(C(=O)N/C(=C\c2ccco2)C(=O)NCCCn2ccnc2)cc1 | 2.5% | -8.0 | -18.8 | -0.9 | 3.2
CN1C2CCC1CC(OC(c1ccccc1)c1ccccc1N)C2 (centres undefined) | -6.3% | · | · | 1.1 | -5.4
CCNc1nc(NCC)nc(N/N=C(\C)c2ccc(OC)cc2)n1 | -0.7% | 2.2 | · | -4.8 | -3.8
O=C(Cc1cccs1)NCc1cccc(Br)c1 | · | · | · | 2.3 | 1.6
Cc1ccc(CNS(=O)(=O)c2cc3c(cc2C)N(C)CCO3)cc1 | · | · | · | 2.0 | -9.6
CN(C)CCCn1c(SCC(=O)N2c3ccccc3Sc3ccccc32)nc2ccccc2c1=O | 0.3% | -30.6 | -2.6 | 7.9 | 100.5
COC(=O)c1cc(C(=O)OC)cc(N2C(=O)CC(Sc3nc(C)cc(C)n3)C2=O)c1 (centres undefined) | -7.7% | 1.6 | 5.1 | 0.6 | -10.9
Additional entries.
SMILES | Mtb H37Rv | Arbovirus inh | YopH inh | RecA intein inh | Mtb bLac sens | others
O=C(/C=C/c1cccc(Cl)c1)Nc1ncccn1 | 3.9% | -1.1 | -25.8 | 1.2 | -0.2
O=C(CSc1nc2c(cnn2-c2ccccc2)c(=O)[nH]1)N1CCOCC1 | -11.7% | 6.4 | -39.3 | 0.6 | -6.5
CC(=O)c1ccc(N2CCN(C(=S)Nc3ccccc3C(F)(F)F)CC2)cc1 | 0.3% | 23.4 | · | -0.6 | 0.1
CC(C)NC(=O)c1n[nH]c(=O)c2ccccc12 | 1.7% | -0.4 | -35.0 | -0.8 | -9.3
c1ccc(N2CCN(Cc3cnc(N4CCOCC4)s3)CC2)cc1 | -1.6% | -1.1 | · | 0.9 | -8.0
COc1ccccc1NC(=S)NCc1cccnc1 | -1.6% | 0.7 | -20.9 | -2.1 | -0.6
c1ccc(C2(CN3CCNC[C@H]3Cc3cccc4ccccc34)CC2)cc1 | · | · | · | 13.1 | 96.2
COc1ccc(C2C=C(C34CC5CC(CC(C5)C3)C4)NC(=S)N2)cc1 (centres undefined) | 1.2% | 20.5 | -17.6 | 9.5 | 9.5
Cc1cnc(C(=O)OCC(=O)Nc2cccc(Cl)c2)cn1 | -2.7% | -2.0 | -45.4 | -2.6 | 6.9 | Arbovirus inh repeat=-0.7
CC1CCN(C(=O)CN(CCc2ccccc2)S(C)(=O)=O)CC1 | 1.7% | 12.8 | -0.1 | -3.7 | 4.6
COc1ccc(/C=C/C(=O)N2CCCC2)cc1OC | -7.2% | 7.0 | · | -1.2 | -3.5
O=C(COc1cccnc1[N+](=O)[O-])N1CCc2ccccc2C1 | -4.9% | -2.8 | · | 0.2 | -4.3

Fetched by structure from above, 6 records:
SMILES | Mtb H37Rv | Arbovirus inh | YopH inh | RecA intein inh | Mtb bLac sens | others
COc1ccc(/C=C/C(=O)N2CCCC2)cc1OC | -7.2% | 7.0 | · | -1.2 | -3.5
COc1ccccc1NC(=S)NCc1cccnc1 | -1.6% | 0.7 | -20.9 | -2.1 | -0.6
O=C(/C=C/c1cccc(Cl)c1)Nc1ncccn1 | 3.9% | -1.1 | -25.8 | 1.2 | -0.2
c1ccc(C2(CN3CCNC[C@H]3Cc3cccc4ccccc34)CC2)cc1 | · | · | · | 13.1 | 96.2
c1ccc(N2CCN(Cc3cnc(N4CCOCC4)s3)CC2)cc1 | -1.6% | -1.1 | · | 0.9 | -8.0
Cc1cnc(C(=O)OCC(=O)Nc2cccc(Cl)c2)cn1 | -2.7% | -2.0 | -45.4 | -2.6 | 6.9 | Arbovirus inh repeat=-0.7

Other entries follow.
SMILES | Mtb H37Rv | Arbovirus inh | YopH inh | RecA intein inh | Mtb bLac sens | others
C=C(CO)C1Cc2cc(C(C)=O)ccc2O1 (centres undefined) | -1.2% | · | · | · | -1.7
O=C(CN(Cc1ccccc1Cl)C(=O)c1csnn1)NCc1ccc(F)cc1 | · | · | · | 2.0 | -2.3
O=S(=O)(C/C(=C/CO)S(=O)(=O)c1ccccc1)c1ccccc1 | -7.2% | -44.5 | -41.1 | 2.6 | 8.0
CC(=O)Nc1ccc(NC(=O)C(C)Sc2nc3nc(C)cc(C)n3n2)cc1 (centres undefined) | · | · | · | -2.9 | 0.2
COc1cccc(NC(=O)C2CCCN(S(=O)(=O)c3cccc4nonc34)C2)c1 (centres undefined) | 6.3% | 6.1 | · | -2.3 | -2.7
CC(C)(C)c1cccc(C2(O)C(=O)c3ccccc3C2=O)c1O | -3.8% | · | · | 3.9 | -3.2
OC1(c2ccccc2)CNCCc2ccccc21 (centres undefined) | · | · | · | 1.2 | -5.2
Cc1c(C(=O)Nc2ccc(N3CCOCC3)cc2)cccc1[N+](=O)[O-] | 10.5% | 7.5 | · | 3.0 | -2.9
CC(=O)Oc1cccc(/C=c2\sc3nc(-c4ccco4)nn3c2=O)c1 | 2.5% | 5.7 | -35.7 | · | 40.1
C=CCn1c(COc2ccc(F)cc2)nnc1SCC(=O)NC1CC1 | · | · | · | -6.0 | -9.1
O=C(NCc1ccccn1)C1CCN(S(=O)(=O)c2ccc(Br)cc2)CC1 | · | · | · | -3.8 | -5.0

Screening results as filed in PubChem BioAssay.
